Autofluor counter = compound fluorescence in toxin protease inhibitor counterscreen. compound autofluorescence counterscreen, microsphere flow cytometry; active compounds read high. fluorescence intensity (no concentration beside the values). 360,000 tested, 3.1% active;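 active = at least 3 SD above the mean of all compounds, about 16000 in these data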;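 also: 100 nL of 1 mM stock went into each well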
* hit, by the source's call. Only part of the results is shown (hit frequency here may not be typical).

SMILES	Autofluor counter
Cc1ccsc1C(=O)OCC(=O)NCc1cccs1	3928
CN(C)C(CNC(=O)C1CC(=O)N(c2cccc(C(F)(F)F)c2)C1)c1ccccc1 (configuration not stated)	3416
COc1cc(NC(C)=O)c2ncccc2c1Br	2932
COc1ccc(Cl)cc1CNC[C@H]1O[C@@H](n2ccc(N)nc2=O)[C@H](O)[C@@H]1O	3853
COc1ccc(C(O)c2nc(-c3cccs3)cs2)cc1 (configuration not stated)	4120
CC1(C(=O)NCc2cccnc2)Cc2c(-c3cccc(C(F)(F)F)c3)ccnc2O1 (configuration not stated)	3722
CC(=O)Nc1cccc(-c2cc(NC=O)c3ncc(-c4cccc(C(C)=O)c4)n3c2)c1	4240
CC1C(=O)N(Cc2cn(CCC3OCCO3)nn2)CCS(=O)(=O)N1Cc1ccc(-c2ccc(F)cc2)cc1 (configuration not stated)	3471
OCCN1CCN(c2cnc(-c3ccsc3)cn2)CC1	2962
OCC[C@@H]1C[C@H](O)[C@@H](O)[C@]2(OCc3cc(C(F)(F)F)ccc32)O1	5951
Cc1ccccc1CC1(C)C(=O)Nc2ccc(S(=O)(=O)NC3CCCCC3)cc21 (configuration not stated)	2829
Cc1noc(C)c1-c1ccc(C(=O)NCc2cccnc2)c2occc12	3798
Cc1cc(C)nc(NS(=O)(=O)c2ccc(NS(=O)(=O)c3ccc(F)c(F)c3)cc2)n1	3112
O=C(Nc1ccccn1)C(c1ccccc1)c1ccccc1	4033
COC1OC2COC(c3ccccc3)OC2C(NC(C)=O)C1OC(C)=O (configuration not stated)	3716
Clc1cc(Cl)cc(Nc2ccccc2CN(C/C=C/c2ccc3c(c2)OCO3)Cc2ccccc2)c1	3478
CCCCN1CC(N2CCN(C(=O)c3ccco3)CC2)CS1(=O)=O (configuration not stated)	4833
COc1ccc(OC)c(NC(=O)c2cc(-c3ccc(F)cc3OC(C)C)n[nH]2)c1	3992
Cc1cc(Br)cn2c(Cc3cccc(F)c3)c(C3CCCCC3)nc12	6600
CC1(Cc2ccc3c(c2)OCO3)C(=O)Nc2c(Cl)ccc(Cl)c21 (configuration not stated)	3768
CCOc1ccc(S(=O)(=O)NCCC(=O)NNC(=O)c2ccc(F)cc2)cc1	2945
COC(=O)c1ccc2nc(-c3ccc(C#N)cc3)c(Cc3cccc(Cl)c3)n2c1	7682
O=C1OCCC1C(=O)c1ccccc1 (configuration not stated)	3751
CCOC(=O)C1(C)CCN1C(=O)c1cc(-c2ccc(Cl)cc2)oc1C (configuration not stated)	3582
CN(C)c1ccc(-c2csc(C(O)c3ccc(F)c(F)c3)n2)cc1 (configuration not stated)	3378
Cc1nc(C(F)(F)F)ccc1C(=O)N1CCC1(C)C(=O)NS(=O)(=O)c1ccc(F)cc1F (configuration not stated)	3748
COc1cccc(-c2cc3nc(NCc4ccc(C)cc4C)n(C)c(=O)c3s2)c1	3056
CC1(C)ON=C(c2ccc(C(F)(F)F)cc2)NC1=O	5007
CCCNC(=O)C1(C)CCCN(C(=O)CN2C(=O)c3ccccc3C2=O)C1 (configuration not stated)	4125
CC(=O)NC(c1ccc(F)c(F)c1)c1nc(-c2cccc(F)c2)cs1 (configuration not stated)	3458

A different layout for three compounds above.
smiles: Clc1cc(Cl)cc(Nc2ccccc2CN(C/C=C/c2ccc3c(c2)OCO3)Cc2ccccc2)c1
  Autofluor counter: 3478

smiles: CCCCN1CC(N2CCN(C(=O)c3ccco3)CC2)CS1(=O)=O (configuration not stated)
  Autofluor counter: 4833

smiles: COc1ccc(OC)c(NC(=O)c2cc(-c3ccc(F)cc3OC(C)C)n[nH]2)c1
  Autofluor counter: 3992

(more compounds)
SMILES	Autofluor counter
COc1ccc(CNC(=O)c2sc(=O)n(Cc3ccc(C)cc3)c2C)cc1OC	3927
COc1ccc(Cl)c(-c2cc(C(=O)Nc3ccc(C)c(NS(C)(=O)=O)c3)[nH]n2)c1	3061
C=CCC[C@H](CCCCC)OC(=O)/C=C/[C@H](O)[C@@H](O)C[C@H](O)CC=C	4188
COc1ncccc1C(=O)N1CCCC(C(=O)Nc2cccc(-c3ccc(F)cc3)c2)C1 (configuration not stated)	2950
Cc1c(Br)cccc1NC(=O)C1(C)CCN1CCc1ccccc1 (configuration not stated)	3891
CC(=O)Nc1ccc(NC(=O)c2ccc(-c3c(C)noc3C)c3ccoc23)cc1	3830
CC(C)N1CCC1(C)C(=O)Nc1nccc2cccnc12 (configuration not stated)	3165
CC1(C(=O)NC2CCCCCC2)CCN1C(=O)Cc1ccc(-c2ccccc2)cc1 (configuration not stated)	3925
NC(Cc1ccc(Cl)cc1)c1csc(NC(=O)NCCc2ccccc2)n1 (configuration not stated)	3897
CCCCN1C(=O)C(CC(=O)NCC2CCCCC2)CC(C(=O)N(CC)CC)=C1C (configuration not stated)	2937
CN1CCN(c2ncnc3c2ncn3[C@H]2CN(Cc3ccco3)C[C@@H](CO)O2)CC1	3732
CC(=O)c1ccc2c(c1)N(Cc1ccccc1Cl)C(=O)C(C)S2 (configuration not stated)	2827
CS(=O)(=O)Nc1ccc2c(c1)[C@H]1C[C@H](CC(=O)NCc3cccc(F)c3)O[C@@H](CO)[C@H]1O2	5266
O=C(Nc1ccc(F)c(Cl)c1)c1csc(COCCO)n1	3792
OC[C@@H]1CN(Cc2ccco2)C[C@H](n2cnc3c(Nc4ccccc4)ncnc32)O1	3710
COc1ccc(NC(=O)C[C@H]2C(=O)N(c3ccc(OC)cc3)C[C@@H]2C)cc1	2835
CCCC#Cc1ccc2c(c1)O[C@@H](CN(C)Cc1ccc3c(c1)OCO3)[C@H](C)CN([C@@H](C)CO)S2(=O)=O	2863
CC1=C(C(=O)N(C(C)C)C(C)C)CC(CC(=O)NC2CC2)C(=O)N1Cc1ccc(F)cc1 (configuration not stated)	6136
CN1CCN(c2ccc(CNC(=O)C3Cc4c(-c5ccccc5)ccnc4O3)cc2)CC1 (configuration not stated)	4680
C[C@@H]1CN([C@@H](C)CO)S(=O)(=O)c2ccc(Br)cc2O[C@H]1CN(C)C(=O)c1ccccc1F	2798
CCOc1ccc(NC(=O)CN(C)C2=NS(=O)(=O)c3ccccc32)cc1	3955
COc1ccc(Cc2n[nH]c(=S)n2-c2cc(C)ccc2C)cc1OC	4306
O=CNc1cc(-c2ccc(C(=O)NC3CC3)cc2)cn2c(-c3ccc(F)cc3)cnc12	4128
Cc1nc(C(F)(F)F)ccc1C(=O)N1CCC(C)(C(=O)NS(=O)(=O)C2CC2)C1 (configuration not stated)	3096
CCCNC(=O)C1(C)CCN(C(=O)c2cc(C)n(C(C)(C)C)n2)C1 (configuration not stated)	3757
O=C(NCCN1CCC(n2c(=O)[nH]c3ccccc32)CC1)c1cccs1	4239
COCCNc1nc2cc(-c3cccc(C(F)(F)F)c3)sc2c(=O)n1C	2970
O=C(OCc1cn([C@H]2C[C@H](c3ccccc3)N(CC3CCCCC3)C[C@@H]2O)nn1)c1ccccc1	4400
CCCC(=O)N1CCCC1(C)C(=O)N(C)Cc1cccc2ccccc12 (configuration not stated)	3450
CCCCC1Cc2[nH]c(=S)[nH]c(=O)c2C(c2ccc(F)cc2)O1 (configuration not stated)	5656

Continued:
SMILES	Autofluor counter
O=C(Nc1ccc2nc([C@@H]3O[C@H](CO)[C@@H](O)[C@H](O)[C@H]3O)[nH]c2c1)NC(c1ccccc1)c1ccccc1	5634
Cn1c2c(c(=O)n(C)c1=O)CN(Cc1ccccc1)CN2	5602
CCCNC(=O)C1(C)CCN(Cc2noc(-c3ccccc3OC)n2)C1 (configuration not stated)	3740
O=C(Nc1ccccc1)c1cc(C2CCCCN2C(=O)c2cccs2)on1 (configuration not stated)	3050
CC(=O)NC(C)(c1ccccc1)c1nc(-c2ccc(N(C)C)cc2)cs1 (configuration not stated)	4144
COc1ccc(N2c3ccccc3CN(Cc3ccccc3)CC2Cc2cc(OC)c(OC)c(OC)c2)cc1 (configuration not stated)	3808
Cc1ccc(C(=O)N2c3ccccc3Sc3ccccc32)cc1	2894
COc1ccc(-n2nnnc2C(c2cccc3ccccc23)N2CCC(n3c(=O)[nH]c4ccccc43)CC2)cc1 (configuration not stated)	6148
COc1ccc(NC(=O)Nc2nnc([C@H]3C[C@H](O)[C@@H](CO)O3)s2)cc1	3859
CC(C)(C)S(=O)N1Cc2cc(C(=O)NCc3ccc4c(c3)OCO4)nc(-c3cccc(-c4cc5ccccc5o4)c3)c2[C@@H]1CCO (some centres not stated)	6360
CCCCCC(=O)N1C[C@H](O)[C@@H](n2cc(C3CC3)nn2)C[C@@H]1c1ccc(Cl)cc1	3411
COc1ccc(S(=O)(=O)Nc2ccc3c(c2)C(=O)N([C@@H](C)CO)C[C@@H](C)[C@H](CN(C)S(=O)(=O)c2ccc(F)cc2)OCCCC[C@H](C)O3)cc1	3233
Cc1ccc2c(CN3CCN(c4ccc(Cl)c(Cl)c4)CC3)cc(=O)oc2c1	4368
CCOC(=O)C1(C)CCN1C(=O)c1cccc(C#N)c1 (configuration not stated)	4022
COc1ccc(NC(=O)C2CC2(Cl)Cl)cc1S(=O)(=O)N1CCCCC1 (configuration not stated)	4009
O=C(NNC(=O)c1cc(S(=O)(=O)N2CCOCC2)ccc1Cl)c1ccc(F)cc1	3851
COc1ccc(Cc2c(C3CCCCC3)nc3ccc(Cl)cn23)c(C)c1	5851
CC(C)CCC(=O)Nc1cc(S(=O)(=O)N2CCOCC2)ccc1N1CCCC1	4408
CC(=O)c1ccc(OC2(C)CCN(Cc3ccccc3OC(F)F)C2)cc1 (configuration not stated)	3031
COC(=O)[C@H]1C[C@H](OC(=O)NC2CC2)[C@@]2(O)CN(S(=O)(=O)c3ccc(C)cc3)CC2[C@H]1C(=O)OC (some centres not stated)	2878
COCCNC(=O)C[C@H]1C[C@H]2c3cc(NS(=O)(=O)c4ccc(F)cc4)ccc3O[C@H]2[C@H](CO)O1	3462
O=C(NCCc1cccs1)c1ccc(CS(=O)Cc2cccc(Cl)c2)o1 (configuration not stated)	4125
C[C@@H]1CN([C@H](C)CO)C(=O)CCCn2cc(nn2)CO[C@H]1CN(C)S(C)(=O)=O	2950
Cc1noc(C)c1C(=O)N1CCC1(C)C(=O)NS(=O)(=O)c1cccs1 (configuration not stated)	3604
CCCS(=O)(=O)NC(=O)C1(C)CCCN(C(=O)c2cc(OC)c(OC)c(OC)c2)C1 (configuration not stated)	3750
CC(=O)C1=CCC(c2ccc(Cl)cc2)N(S(=O)(=O)c2ccccc2C)C1 (configuration not stated)	6172
CC1(C(=O)Nc2ccc(Cl)c(Cl)c2)CCN1C(=O)Cc1cccc2ccccc12 (configuration not stated)	3588
COc1ccc(CCC2=NCCN2C(CC(C)C)c2nc3ccccc3[nH]2)cc1 (configuration not stated)	5996
CC(=O)NC(c1cccc(F)c1)c1nc(-c2ccccc2)cs1 (configuration not stated)	3634
Fc1ccc(-c2nc3c(Cl)cc(C(F)(F)F)cn3c2Cc2cccc(Cl)c2)cc1	5032

(continued)
SMILES	Autofluor counter
NC(Cc1ccc(F)cc1)c1csc(Nc2ncccn2)n1 (configuration not stated)	3876
C=CCN(CC=C)Cc1cc(=O)oc2ccccc12	5971
O=C1CC(=O)N(C2CCCCC2)C(=O)N1c1ccccc1S(=O)(=O)Oc1ccccc1	4542
O=NN(Cc1cccnc1)Cc1cccnc1	5917
O=C1NC(=O)C(=CC=Cc2ccccc2)S1	3679
N#Cc1cccc(OC(=O)C2CCN(C(=O)c3ccc(F)cc3)CC2)c1	3779
O=C(CSCC(=O)c1ccc([N+](=O)[O-])cc1)c1ccc([N+](=O)[O-])cc1	4400
CCCCNC(=O)C1(C)CCCCN1C(=O)c1cccs1 (configuration not stated)	3581
CCN(CC)CCN1CNC(=S)NC1	3585
Cc1ccccc1S(=O)(=O)N1C[C@H]2[C@H]3C(=O)N(C4CCCCC4)C(=O)[C@H]3CC(=O)[C@H]2[C@@H]1c1ccc(Cl)cc1	5523
CCN1C(=O)[C@H]2[C@@H](c3ccc(C)cc3)N[C@]3(CCCN(Cc4cccn4C)C3=O)[C@H]2C1=O	2849
Cc1cc(C)n2c(Nc3c(C)cccc3C)c(CCc3ccccc3)nc2n1	5427
CCOC(=O)[C@]12Cc3cc(C)ccc3[C@H]1N(C(C)C)C(=O)c1ccccc12	5866
O=S(=O)(NCc1ccncc1)c1ccc(F)c(F)c1	3877
C[C@H](CO)N1C[C@H](C)[C@@H](CN(C)C(=O)NC2CCCC2)Oc2cc(Br)ccc2S1(=O)=O	3714
CC1(C(=O)NCCc2c[nH]c3ccccc23)CCN1Cc1ccccc1OC(F)F (configuration not stated)	3759
CC1(C(=O)NS(=O)(=O)c2cccc(F)c2)CCN1C(=O)C/C=C/c1ccccc1 (configuration not stated)	3994
CCc1nc2ccc(C(=O)NCc3ccc(OC)cc3)cn2c1N(CCC(C)C)CCN(C)C	3635
Cc1ccc2nc3n(c(=O)c2c1)-c1ncccc1C(=O)NC3Cc1ccccc1 (configuration not stated)	4050
COCCN1C(=O)c2ccccc2C1c1nnnn1Cc1ccccc1 (configuration not stated)	5967
CNC[C@@H]1Oc2cc(Br)ccc2S(=O)(=O)N([C@@H](C)CO)C[C@H]1C	3397
Cc1nc2ccc(Cl)cc2n1C	3803
CN1CCN(c2ncnc3c2ncn3[C@H]2CN(Cc3ccc4c(c3)OCO4)C[C@@H](CO)O2)CC1	2853

Ordered by number of heavy atoms (smallest number first): 4 of the compounds above
SMILES	Autofluor counter
O=C1NC(=O)C(=CC=Cc2ccccc2)S1	3679
CNC[C@@H]1Oc2cc(Br)ccc2S(=O)(=O)N([C@@H](C)CO)C[C@H]1C	3397
N#Cc1cccc(OC(=O)C2CCN(C(=O)c3ccc(F)cc3)CC2)c1	3779
Cc1ccc2nc3n(c(=O)c2c1)-c1ncccc1C(=O)NC3Cc1ccccc1 (configuration not stated)	4050
